Assay outcomes as filed in PubChem.
CtBP-E1A inh = qHTS Assay for Inhibitors of the CtBP/E1A Interaction; AlphaScreen GST-E1A/His-CtBP binding, 1536-well; stronger effect = lower value; control for the full effect not named in the record; CtBP / adenovirus E1A interaction (AlphaScreen); activity change, % (concentration not given with the values); 340,000 tested, 0.49% active; in the data active means activity change below about -65%; inconclusive means about -30% to -65%; inactive means above about -30%; also: % is scaled to controls: 0 for no effect and ±100 for the full control effect
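Homogeneous bead-based format: GST-tagged E1A captured on glutathione donor beads, His-tagged CtBP on nickel acceptor beads; compounds precede bead addition by 2 h at 37 °C.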
D2 ag = Beta-Arrestin HTS for Positive Allosteric Modulators of the Human D2 Dopamine Receptor: Agonists; D(2) dopamine receptor (Homo sapiens), P14416; DiscoveRx PathHunter D2 beta-arrestin, luminescence, 90 min; 100% = 57 uM dopamine signal; activation, % (concentration not given with the values); 360,000 tested, 0.084% active; AID 624465, 2012; in the data active = activation above about 40%; inconclusive = about 15% to 40%; inactive = below about 15%; also: compound concentration not given in the record; the text of the record calls up to 30% inactive
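DiscoveRx PathHunter D2 beta-arrestin cells (2,100/well) attached overnight, then compound-stimulated 90 min at 37 C in HBSS/10 mM HEPES/0.1% Tween-20 buffer; beta-galactosidase complementation read by luminescence after 1 h at ambient temperature. Dopamine 57 uM final (EC100) as control.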
gsp ag = qHTS for Agonist of gsp, the Etiologic Mutation Responsible for Fibrous Dysplasia/McCune-Albright Syndrome: qHTS. 340,000 tested, 0.13% active. AID 624287, 2012. Potency, µM (titrated, usually from 76.9 µM), for inactives: at the top dose activation (cAMP increase), most hits filed as activators. gsp mutant cells, cAMP HTRF, 30 min; control for the full effect not named in the record; active = well fitted activation curve with a large enough effect; inconclusive = small, poorly fitted or top-dose-only effect, or another doubt; inactive = no such curve, though single readings can be large or run the other way; cell line not stated here;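 also: phosphodiesterase inhibitor Ro 20-1724 added with compounds to block cAMP breakdown; potency is read from the fitted curve at half-maximal effect; nearly all actives have a fitted effect of over 60% in size; about a fifth of the inactives were tested at one dose only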
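Cells in DMEM/10% FBS with G418 were pretreated with compounds in DMSO plus […] (300 uM stock) for 30 min at 37C. cAMP was measured by HTRF (cAMP-d2 plus anti-cAMP antibody-K) after 30 min at room temperature.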
gsp antagonist = qHTS for Antagonists of gsp, the Etiologic Mutation Responsible for Fibrous Dysplasia/McCune-Albright Syndrome: qHTS. gsp-mutant cells, cAMP HTRF, 30 min; control for the full effect not named in the record. Potency, µM (titrated, usually from 76.9 µM), for inactives: top-dose activity change, negative = inhibition, most hits filed as inhibitors. 340,000 tested, 0.4% active. AID 624288, 2012; active = falling curve of any shape with a large fitted effect; inconclusive = falling curve, mostly with a smaller effect; inactive = flat or rising curve; cell line not stated here;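 also: intracellular cAMP measured with PDE inhibitor Ro 20-1724 present during compound exposure; potency is read from the fitted curve at half-maximal effect; % is scaled to controls: 0 for no effect and ±100 for the full control effect; nearly all actives have a fitted effect of over 65% in size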
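Measurement of cellular cAMP by homogeneous time-resolved fluorescence following a 30 min compound exposure at 37C. The PDE inhibitor […] was present throughout; the assay buffer was DPBS with 0.05% BSA and 0.005% Tween 20.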
D2 potentiator = Beta-Arrestin HTS for Positive Allosteric Modulators of the Human D2 Dopamine Receptor: Potentiators; potentiation, % (no concentration beside the values); D(2) dopamine receptor (Homo sapiens), P14416; 360,000 tested, 0.23% active; AID 624464, 2012; DiscoveRx D2 beta-arrestin cells, luminescence, 90 min; 100% = 57 uM dopamine signal; active = potentiation of 50% or more; inconclusive = 30% to 50%; inactive = 30% or less;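 also: compound concentration not given in the record; tested on top of an EC20 dose of dopamine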
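D2 cells co-treated with compound plus 50 nM dopamine (EC20) for 90 min at 37 deg C to detect potentiation. Beta-arrestin recruitment was read as enzyme-fragment luminescence after 1 h at ambient temperature. Full response was set by 57 uM dopamine.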
Six1-Eya2 inh = qHTS Assay for Inhibitors of the Six1/Eya2 Interaction; AlphaScreen GST-Six1/His-Eya2 binding, biochemical; stronger effect = lower value; control for the full effect not named in the record; AID 651725, 2012; activity change, % (concentration not given with the values); 360,000 tested, 0.56% active; Homeobox protein SIX1 (Homo sapiens) + Protein phosphatase EYA2 (Homo sapiens), …; in the data active = activity change below about -65%; inconclusive = about -30% to -65%; inactive = above about -30%; also: % is scaled to controls: 0 for no effect and ±100 for the full control effect
Target sequence (O00167 whole entry, looked up): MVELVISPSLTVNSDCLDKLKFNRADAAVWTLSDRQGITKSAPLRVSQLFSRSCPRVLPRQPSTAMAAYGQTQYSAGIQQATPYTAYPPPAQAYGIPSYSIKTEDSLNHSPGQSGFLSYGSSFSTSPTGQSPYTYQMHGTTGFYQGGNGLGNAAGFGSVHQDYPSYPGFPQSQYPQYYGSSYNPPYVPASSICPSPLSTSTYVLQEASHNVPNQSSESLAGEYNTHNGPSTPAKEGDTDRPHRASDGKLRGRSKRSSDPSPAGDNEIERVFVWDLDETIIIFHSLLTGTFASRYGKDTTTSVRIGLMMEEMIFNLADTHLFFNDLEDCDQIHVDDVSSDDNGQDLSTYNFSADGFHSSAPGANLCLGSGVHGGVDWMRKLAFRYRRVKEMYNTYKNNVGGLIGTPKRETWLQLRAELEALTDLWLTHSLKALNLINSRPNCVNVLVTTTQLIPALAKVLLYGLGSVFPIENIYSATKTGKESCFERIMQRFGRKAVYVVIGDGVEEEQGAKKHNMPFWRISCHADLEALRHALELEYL
Target sequence (Q15475 whole entry, looked up): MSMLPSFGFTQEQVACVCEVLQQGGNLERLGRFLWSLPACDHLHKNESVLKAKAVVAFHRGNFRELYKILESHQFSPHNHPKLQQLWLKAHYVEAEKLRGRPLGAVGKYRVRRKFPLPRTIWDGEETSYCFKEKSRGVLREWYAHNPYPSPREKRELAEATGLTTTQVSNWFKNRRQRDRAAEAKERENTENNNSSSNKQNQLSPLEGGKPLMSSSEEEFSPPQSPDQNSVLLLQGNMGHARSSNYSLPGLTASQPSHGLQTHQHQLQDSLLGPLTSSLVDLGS
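AlphaScreen with GST-Six1 and His-Eya2 (5X mix: 250 nM and 500 nM), glutathione donor and nickel acceptor beads; buffer 50 mM Tris pH 8.0, 300 mM NaCl, 1 mM TCEP; 1 h at 37 C in the dark.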
Numbers without * were called inactive; [ ] = another dose, or the depositor's remark.

For Cn1c(=O)cc(SCC(=O)NCc2ccco2)c2ccccc21 the results were CtBP-E1A inh -3, D2 ag -0.8, gsp ag inconclusive, gsp antagonist -5%, D2 potentiator 2 and Six1-Eya2 inh -4.
O=C1NC(c2ccccc2)Cc2ccncc21 (configuration not stated) was read as CtBP-E1A inh -5, D2 ag -1.6, gsp ag -4%[15.4 µM], gsp antagonist 11%, D2 potentiator -10 and Six1-Eya2 inh 3.
Screening Cc1ccc(C)c(NC(=S)NCCc2c[nH]c3ccccc23)c1 returned CtBP-E1A inh inconclusive, D2 ag 3.5, gsp ag -8%, gsp antagonist -4%, D2 potentiator -10 and Six1-Eya2 inh -24.
For Cn1nc(CC(=O)NCc2ccc(C(F)(F)F)cc2)c2ccccc2c1=O the results were CtBP-E1A inh -3, D2 ag 3.7, gsp ag -17%, gsp antagonist 13µM*, D2 potentiator 5 and Six1-Eya2 inh 2.
Cc1ccc(C(=O)NCCC(=O)N2CCOCC2)cc1 was read as CtBP-E1A inh -1, D2 ag -0.3, gsp ag 20%, gsp antagonist 15%, D2 potentiator 1 and Six1-Eya2 inh 2.
NC(=O)c1c(NC(=O)C(=O)N2CCOCC2)sc2c1CCCC2 was read as CtBP-E1A inh 1, D2 ag 1.5, gsp ag -20%, gsp antagonist 6%, D2 potentiator -3 and Six1-Eya2 inh -1.
Screening Cc1nc2cc(NC(=O)N3CCN(c4ccccn4)CC3)ccc2o1 returned CtBP-E1A inh -11, D2 ag 0.3, gsp ag 3%, gsp antagonist 5%, D2 potentiator -16 and Six1-Eya2 inh 2.
CCCCc1cc(=O)oc2c3c(cc(OCC(=O)N4CCC[C@H]4C(=O)O)c12)OC(C)(C)CC3 was read as CtBP-E1A inh 3, D2 ag -5.6, gsp antagonist 9%, D2 potentiator -9 and Six1-Eya2 inh 0.
For CC(NC(=O)C1CCC1)c1ccc2c(c1)OCO2 (configuration not stated) the results were CtBP-E1A inh 6, D2 ag -0.3, gsp ag 33%, gsp antagonist 2%, D2 potentiator -3 and Six1-Eya2 inh 0.
COc1ccccc1N1CCN(C(=O)CN(C)S(=O)(=O)c2cc(C)ccc2OC)CC1 was read as CtBP-E1A inh -6, D2 ag -4.2, gsp ag -20%, gsp antagonist -5%, D2 potentiator 2 and Six1-Eya2 inh 1.
Screening O=C(CSc1nnc2ccccn12)Nc1ccc2c(c1)OCO2 returned CtBP-E1A inh 9, D2 ag 4.0, gsp ag inconclusive, gsp antagonist 3%, D2 potentiator -3 and Six1-Eya2 inh -1.
O=C(CN(c1cccc([N+](=O)[O-])c1)S(=O)(=O)c1ccccc1)N1CCCCC1 was read as CtBP-E1A inh -14, D2 ag 0.5, gsp ag -3%[15.4 µM], D2 potentiator -5 and Six1-Eya2 inh 0.
For CC(Sc1nnc(-c2ccncc2)n1-c1ccc(F)cc1)C(=O)NC1CC1 (configuration not stated) the results were CtBP-E1A inh 6, D2 ag -0.9, gsp ag inconclusive, gsp antagonist 14%, D2 potentiator 2 and Six1-Eya2 inh 3.
Screening Cn1c(Cc2cccs2)nnc1SCC(=O)Nc1ccc(C(N)=O)cc1 returned CtBP-E1A inh -13, D2 ag -3.5, gsp ag -9%, gsp antagonist 5%, D2 potentiator 5 and Six1-Eya2 inh 4.
Cc1ccc(-c2c(C(=O)O)c(C(=O)O)c3n2CCC3)cc1 was read as D2 ag -4.4, gsp ag 1%, gsp antagonist 57%[activator], D2 potentiator -2 and Six1-Eya2 inh -7.
`CC1C/C(=N\NC(=O)CCc2ccc(S(=O)(=O)N3CCOCC3)cc2)CC(C)(C)C1` (configuration not stated) gave CtBP-E1A inh 1, D2 ag 0.8, gsp ag 1%, gsp antagonist -3%, D2 potentiator -6 and Six1-Eya2 inh 6.
`C=CC[C@H](CC(=O)NCCO)C(=O)NCCOC(=O)[C@@H](CC=C)CC(=O)OC(C)(C)C` gave CtBP-E1A inh -12, D2 ag -2.9, gsp ag -28%, gsp antagonist 6%, D2 potentiator -1 and Six1-Eya2 inh 10.
`Cc1ccc(CNC(C)c2ccccc2)cc1` (configuration not stated) gave CtBP-E1A inh 10, D2 ag -1.8, gsp ag 13%, gsp antagonist 16%, D2 potentiator -32 and Six1-Eya2 inh 5.
For COc1ccc(OC)c(NC(=O)Nc2c(O)ccc3ccccc23)c1 the results were D2 ag inconclusive, gsp ag -17%, gsp antagonist -7%, D2 potentiator 8 and Six1-Eya2 inh -1.
Screening Cc1ccc(SC(C)c2nc(-c3cccnc3)no2)cc1 (configuration not stated) returned CtBP-E1A inh 7, D2 ag 0.1, gsp ag -4%, gsp antagonist -22%, D2 potentiator 16 and Six1-Eya2 inh 19.
Screening O=C(c1c(Cl)nc2sccn12)N1CCN(c2cccc(Cl)c2)CC1 returned CtBP-E1A inh -1, D2 ag -2.8, gsp ag -6%, gsp antagonist 10%, D2 potentiator -6 and Six1-Eya2 inh -8.
`COc1ccccc1C1CCN(C(=O)c2ccccc2)CC1` gave CtBP-E1A inh 3, D2 ag -6.1, gsp ag 28%, gsp antagonist 0%, D2 potentiator 3 and Six1-Eya2 inh 0.
Screening CC12CCC(=O)N1C(C(=O)Nc1cc(Cl)ccc1N1CCCC1)CS2 (configuration not stated) returned CtBP-E1A inh 11, D2 ag -3.7, gsp ag -82%[inhibitor], gsp antagonist -17%, D2 potentiator -11 and Six1-Eya2 inh -3.
Screening COc1ccc(C2C(C(C)=O)=C(C)Nc3ncnn32)c(OC)c1OC (configuration not stated) returned CtBP-E1A inh 1, D2 ag -3.9, gsp ag 4%[15.4 µM], gsp antagonist 4%, D2 potentiator -6 and Six1-Eya2 inh -13.
Screening NC(=O)c1nsc(C(=O)N(c2cccc(F)c2)C(C(=O)NC2CCCC2)c2ccco2)c1N (configuration not stated) returned CtBP-E1A inh -8, D2 ag -2.6, gsp ag inconclusive, gsp antagonist 4%, D2 potentiator -6 and Six1-Eya2 inh 4.
Screening O=c1[nH]c(=O)c2cc([N+](=O)[O-])cc([N+](=O)[O-])c2[nH]1 returned CtBP-E1A inh -22, D2 ag 14, gsp ag -2%[15.4 µM], D2 potentiator inconclusive and Six1-Eya2 inh 10.
O=C(CSc1nnnn1-c1ccccc1)NCc1ccco1 was read as CtBP-E1A inh -4, D2 ag 0.3, gsp ag 5%, gsp antagonist -12%, D2 potentiator -6 and Six1-Eya2 inh 0.
`Cc1oc(-c2ccccc2F)nc1CS(=O)(=O)CC(=O)NC1CCCC1` gave CtBP-E1A inh 2, D2 ag -3.6, gsp ag 23%, gsp antagonist 6%, D2 potentiator -3 and Six1-Eya2 inh 6.
For O=C(CN1C(=O)NC2(CCCCCCC2)C1=O)NCc1ccc(F)cc1 the results were CtBP-E1A inh 7, D2 ag -4.1, gsp ag -13%, gsp antagonist 9%, D2 potentiator -5 and Six1-Eya2 inh 6.
`CCC(CC)NC(=O)COC(=O)CCC(=O)c1ccc(Cl)cc1` gave CtBP-E1A inh 0, D2 ag -4.4, gsp ag -3%[15.4 µM], gsp antagonist -10%, D2 potentiator -4 and Six1-Eya2 inh 5.
Screening CCCC(=O)NC(C)c1nc2ccccc2[nH]1 (configuration not stated) returned CtBP-E1A inh 7, D2 ag -3.1, gsp ag -35%, gsp antagonist 9%, D2 potentiator -3 and Six1-Eya2 inh 5.
Screening CN1CCCN(c2cc(-c3ccc4ccccc4c3)nc3ccnn23)CC1 returned CtBP-E1A inh -5, D2 ag -3.2, D2 potentiator -14 and Six1-Eya2 inh -15.
COc1ccc(NC(=O)COC(=O)Cc2ccccc2[N+](=O)[O-])cc1OC was read as CtBP-E1A inh 7, D2 ag -3.3, gsp ag -4%, gsp antagonist -13%, D2 potentiator -8 and Six1-Eya2 inh -2.
O=S(=O)(/C=C/c1cccc(Br)c1)N1CCOCC1 was read as CtBP-E1A inh -5, D2 ag -4.8, gsp ag -3%, gsp antagonist 21%, D2 potentiator -11 and Six1-Eya2 inh 1.
For COc1ccc(CCNc2nncc(=O)[nH]2)cc1OC the results were CtBP-E1A inh -3, D2 ag -1.5, gsp ag 1%, gsp antagonist 11%, D2 potentiator 9 and Six1-Eya2 inh -1.
For Brc1ccc2ncnc(NCc3ccccc3)c2c1 the results were CtBP-E1A inh 2, D2 ag 6.2, gsp ag inconclusive, gsp antagonist -9%, D2 potentiator -5 and Six1-Eya2 inh 4.
`O=C(O)c1cccc(NC(=O)c2ccccc2NC(=O)c2cccs2)c1` gave CtBP-E1A inh -11, D2 ag -2.5, gsp ag 16%, D2 potentiator -1 and Six1-Eya2 inh -21.
COc1ccc(NC(=O)Nc2cc(C)ccc2OC(F)F)c(OC)c1 was read as CtBP-E1A inh -12, D2 ag -2.5, gsp ag -41%[inhibitor], gsp antagonist -6%, D2 potentiator -15 and Six1-Eya2 inh -5.
Screening N#CCc1nc(CSc2nc3ccccc3o2)cs1 returned CtBP-E1A inh 7, D2 ag -0.8, gsp ag 14%, gsp antagonist 5%, D2 potentiator 2 and Six1-Eya2 inh 6.
Screening Nc1nc(-c2ccc(Br)s2)c(Br)s1 returned CtBP-E1A inh -4, D2 ag -2.7, gsp ag 0%, gsp antagonist -15%, D2 potentiator -6 and Six1-Eya2 inh -2.
Screening Cc1ccc(Nc2nc(N)nc(CN3CCN(C)CC3)n2)cc1 returned CtBP-E1A inh -11, D2 ag -1.0, gsp ag 24%, gsp antagonist 5%, D2 potentiator -17 and Six1-Eya2 inh 0.
Screening Cc1ccc(C)c(S(=O)(=O)N2CCCC2CNC(=O)C(=O)NCC2CCCO2)c1 (configuration not stated) returned CtBP-E1A inh 10, D2 ag -1.9, gsp ag -13%[15.4 µM], gsp antagonist -2%, D2 potentiator 2 and Six1-Eya2 inh 2.
`CC(C)(CO)CNC(=O)c1ccc(OC2CCN(C(=O)C3CC3)CC2)cc1` gave CtBP-E1A inh 5, D2 ag -1.7, gsp ag -18%, gsp antagonist -2%, D2 potentiator -4 and Six1-Eya2 inh -3.

Pulled one by one from above (2):
Cc1ccc(C(=O)NCCC(=O)N2CCOCC2)cc1 was read as CtBP-E1A inh -1, D2 ag -0.3, gsp ag 20%, gsp antagonist 15%, D2 potentiator 1 and Six1-Eya2 inh 2.
`CC(C)(CO)CNC(=O)c1ccc(OC2CCN(C(=O)C3CC3)CC2)cc1` gave CtBP-E1A inh 5, D2 ag -1.7, gsp ag -18%, gsp antagonist -2%, D2 potentiator -4 and Six1-Eya2 inh -3.
